# Compound activity (PubChem)
# Polio RdRp inh: inhibitors of poliovirus RNA polymerase binding and polymerization | P03300 | poliovirus polymerase elongation, fluorescence polarization; hits give low values | % elongation, % (compound at 16.7 µg/mL) | 150,000 compounds, 0.66% hits; in the data active = % elongation below about 90%; also: some results filed as inactive read as strong as hits
# Target sequence (P03300 1749-2209 limits assumed): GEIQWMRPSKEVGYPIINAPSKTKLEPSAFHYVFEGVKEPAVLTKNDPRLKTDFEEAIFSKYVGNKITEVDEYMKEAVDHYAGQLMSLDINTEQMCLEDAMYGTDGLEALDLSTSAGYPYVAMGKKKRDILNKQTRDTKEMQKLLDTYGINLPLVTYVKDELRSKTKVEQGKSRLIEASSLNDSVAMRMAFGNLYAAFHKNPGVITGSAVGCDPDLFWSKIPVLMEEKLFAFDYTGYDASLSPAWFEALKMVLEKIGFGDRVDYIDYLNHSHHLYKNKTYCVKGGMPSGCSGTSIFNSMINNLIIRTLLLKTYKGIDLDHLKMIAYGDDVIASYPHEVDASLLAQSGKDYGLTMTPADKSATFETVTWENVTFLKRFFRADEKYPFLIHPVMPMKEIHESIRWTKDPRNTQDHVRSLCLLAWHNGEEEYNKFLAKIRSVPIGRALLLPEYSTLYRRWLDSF
# MenB inh: inhibitors of Mycobacterium tuberculosis MenB enzyme. AID 540299. P9WNP5. MenB enzyme assay, absorbance read-out; some hits fall short of the stated cut. inhibition, %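 (about 12 µg/mL by stock and volumes)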. 100,000 compounds, 0.43% hits;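 active = mean of two replicates above 30%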;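 also: 0% = no compound and 100% = wells with inactive enzyme; the first replicate is given; strong numbers were not always called active; inactives centre near -10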
# Target sequence (P9WNP5 whole entry, looked up): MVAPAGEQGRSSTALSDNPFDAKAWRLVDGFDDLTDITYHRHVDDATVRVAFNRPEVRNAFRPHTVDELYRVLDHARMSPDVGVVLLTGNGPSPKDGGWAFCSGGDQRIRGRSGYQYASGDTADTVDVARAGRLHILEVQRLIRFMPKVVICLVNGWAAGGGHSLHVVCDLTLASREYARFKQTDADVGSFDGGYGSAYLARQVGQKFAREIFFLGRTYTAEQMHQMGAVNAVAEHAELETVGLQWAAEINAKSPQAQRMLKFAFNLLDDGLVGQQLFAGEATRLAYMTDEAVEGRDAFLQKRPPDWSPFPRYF
# Mtb MbtI inh: blocks the Mycobacterium tuberculosis siderophore enzyme MbtI; P9WFX0; inhibition, %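 (about 17 µg/mL by stock and volumes)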; 100,000 compounds, 0.89% hits; purified MbtI enzyme, fluorescence intensity read-out;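 active = above 50% in both replicates, above 80% if mildly self-fluorescent; inactive = the rest, strongly fluorescent compounds included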;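 also: 0% = mean of negative and 100% = mean of positive controls; one replicate is shown; some compounds called inactive have numbers as strong as hits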
# Polio RdRp inh intensity: second read-out of Polio RdRp inh, no call of its own (marks repeat the call); % elongation; measured here: total intensity read-out; formula for this scale not given here;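 total fluorescence in place of polarization; lower means less elongation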
# Starred values were filed as active, the others as inactive; i = inactive; . = no result given; & = joins results of further samples. This is a random part of the collection; 1.8% or so of the library scored in one or more.
SMILES,Polio RdRp inh,Polio RdRp inh intensity,MenB inh,Mtb MbtI inh
Cc1ccc(S(=O)(=O)N2CCCC(NC(=O)N3CCCCC3C)C2)cc1 (stereo not drawn),102,103,-8,3
CCC(C)NC(=O)c1nn(-c2ccc(OC)cc2)c(=O)c2c1c1ccccc1n2C (stereo not drawn),101,99,-23,3
Cc1cc(C(=O)OC(C)C(=O)Nc2cccc(C(F)(F)F)c2)c(C)o1 (stereo not drawn),105,111,-3,-6
Cc1ccc(C)c(S(=O)(=O)c2n[nH]n3c2nc(=O)c2sccc23)c1,101,100,-4,38
Cc1ccc2ncnc(NC(CO)C(=O)O)c2c1 (stereo not drawn),103,102,-10,9
Cc1ccc(Cl)cc1N1CCN(CCCNC(=O)CN2C(=O)CSc3ncccc32)CC1,102,103,-2,-6
Cc1ccc(S(=O)(=O)C(CNC(=O)c2c(F)cccc2F)c2ccco2)cc1 (stereo not drawn),106&103,106&104,-28,-17
Cn1cc(/C(N)=N/O)c(=O)n(Cc2ccccc2)c1=O,99,101,11,-11
CCOc1cccc2cc(C(N)=O)c(=NCc3ccccc3)oc12,108,116,6,-3
O=C(CCSc1nc(-c2ccco2)cc(C(F)(F)F)n1)NCc1ccco1,101,104,3,11
O=C(/C=C/c1ccc(Cl)cc1)Nc1nccs1,102,105,-5,1
Cc1ccc(-n2c(C)nc3cc(C(=O)O)ccc32)c(C)c1,103,103,-17,-1
CC(=O)N1CC=C2C(C#N)=C(N)C(C#N)(C#N)[C@H](c3ccc(F)cc3F)[C@H]2C1,110,118,-12,.
CC(=O)Nc1ccc(S(=O)(=O)N2CCCC2c2ccc3c(c2)OCCCO3)cc1 (stereo not drawn),102,89,-42,-5
C=CCn1c(/N=C/c2ccc(OC)cc2)nc2ccccc21,104,101,-35,-6
Oc1ccccc1C1CCCCC1c1ccccc1 (stereo not drawn),103,108,-10,51
O=C(Nc1c(C(=O)N2CCOCC2)cnn1-c1ccccc1)c1ccco1,100,104,-13,-14
CC(Cc1ccccc1)[n+]1cc(N)on1 (stereo not drawn),96,95,-19,2
O=C1NC(=O)NC(=C/C=C/c2ccc(-c3ccc(Cl)cc3Cl)o2)N1,102,108,-18,57*
O=C(COc1ccc2c(c1)OCO2)NC12CC3CC(CC(C3)C1)C2,105,112,-8,-38
c1csc(-c2csc3nc(CN4CCOCC4)nc(NC4CC4)c23)c1,108,98,-41,-1
CC(=O)OC12CC3CC(C1)CC(C(=O)O)(C3)C2,103,104,.,-14
COc1ccc(-n2c(-c3cccc(OC)c3)csc2=NCc2cccnc2)cc1,103,104,7,2
Nc1c2c(nc3ccccc13)N(Cc1ccccc1)CC2,101,100,-10,108
CCc1cc(=O)oc2c(C)c3occ(C)c3cc12,102,103,13,10
Cc1c(Cl)cnc(NC(=O)COC(=O)COc2ccc3c4c(c(=O)oc3c2)CCC4)c1Cl,109,105,6,122
O=C(OCC(=O)N1CCc2ccccc2C1)c1sc2sccc2c1Cl,101,107,-32,-1
COc1ccc(C)cc1S(=O)(=O)NC(C)C(=O)NCc1ccco1 (stereo not drawn),100,105,21,0
COc1cc(C#N)ccc1OCC(=O)Nc1ccc(F)cc1,104,101,-41,-7
CC(=O)N(C)CP(=O)(O)CN1CCCC1=O,98,94,6,.
CNC(=O)c1ccccc1Sc1ccccc1C(=O)NC,99,98,7,-4
O=C(CCN1CCN(c2ccccc2)CC1)c1ccc2ccccc2c1,93,97,2,.
N#Cc1nc(-c2ccc(Cl)cc2)oc1NC1CC1,104,110,.,88
O=C(O)CCc1n[nH]c(=O)[nH]c1=O,104,106,8,-16
COc1ccc2c(c1)C(=O)C(CC1(O)C(=O)N(C)c3ccccc31)CC2 (stereo not drawn),100,96,-3,.
C1=C(c2ccccn2)Oc2ccccc2O1,101,108,.,96
C1CCC(NC2=NCCCS2)CC1,103,109,.,-13
O=C(CSc1ccc(Br)cc1)N1CCCCC1,104,104,.,-13
CSCc1nnc(NC(=O)c2ccc(S(=O)(=O)N(CC(C)C)CC(C)C)cc2)o1,100,101,-13,0
COc1ccc(CCNC2(Cc3ccccc3)CC(C)N(C)CC2C)cc1OC (stereo not drawn),102,97,1,.
CCN1C(=O)c2cccc3c(S(=O)(=O)NCc4ccco4)ccc1c23,102,103,-30,5
O=S(=O)(NC1=NCCCCC1)c1ccc(Cl)cc1,100,95,.,-7
O=C(Nc1ccccc1C(=O)Nc1ccccc1C(=O)O)c1ccccc1,102,110,-16,8
O=C(CN1C(=O)S/C(=C\c2ccc(O)cc2)C1=O)N1CCOCC1,102,103,-18,10
Nc1nc(NC2CCCCNC2=O)n[nH]1 (stereo not drawn),100,96,5,2
CCCCCc1nnc(N)s1,103,104,5,-6
CC(C)CNC(=O)c1cc(-c2cccs2)on1,102,96,-9,1
OCc1nc2ccccc2n1CC(O)COc1ccccc1 (stereo not drawn),101,102,-9,-11
Cc1nc(-c2c(C(=O)NN)noc2C)cs1,94,98,11,11
Clc1ccc2oc(-c3ccccn3)nc2c1,100,103,7,i

# (list continues)
SMILES,Polio RdRp inh,Polio RdRp inh intensity,MenB inh,Mtb MbtI inh
c1ccc(-c2noc(NCCN3CCCc4ccccc43)n2)cc1,101,103,-27,-13
CCC(N)C(O)c1ccc(O)c(O)c1 (stereo not drawn),101,103,2,-2
CC1CCCN(S(=O)(=O)Cc2ccccc2)C1 (stereo not drawn),102,101,-2,31
COc1ccc(NC(=O)C2=CSCCO2)cc1OC,101,99,8,16
CCc1ccccc1N1C(=NC(=O)C(C)C)SC2CS(=O)(=O)CC21 (stereo not drawn),99,102,-18,-9
CN(C)c1ccc(/C=C(/C#N)c2ccc(F)cc2)cc1,102,105,-22,-9
O=C(NCc1ccc(Cl)cc1)C1=CN2CCS(=O)(=O)N=C2C=C1,97,102,-20,100
CN(C)c1ccc(Cl)nn1,102,100,7,3
O=P(O)(/C=C/c1ccccc1)/C=C/c1ccccc1,100,102,-36,0
Cc1cc(C)cc(NC(=O)C(c2ccccc2)N2CCCC2)c1 (stereo not drawn),107,112,-11,-11
COc1ccc2c(c1)[nH]c1c(=O)n(CCCN3CCN(C4CCCCC4)CC3)cnc12,102,104,-1,2
CCc1ccccc1NC(=O)C(C)Oc1ccccc1 (stereo not drawn),108,105,-17,.
O=c1c2ccccc2nc2n1CCN2,107,100,-33,.
O=C1/C(=C/c2cccnc2)CCC/C1=C\c1cccnc1,101,98,-27,30
CC(C)(C)c1ccc(C(=O)N2CCC(C(=O)O)CC2)cc1,101,101,-15,-3
COC(=O)C1=C(C)NC(=O)NC1c1ccccc1 (stereo not drawn),101,103,7,-6
COc1ccc(C2CCCN2C(=O)Nc2ccccc2)cc1OC (stereo not drawn),100,96,-42,-4
COc1ccc(-c2noc(=O)n2Cc2cccc(C)c2)cc1,103,106,11,-4
COc1ccc(CNC(=O)Cc2coc3cc(C)cc(C)c23)cc1,101,98,-25,0
O=C(OCC(=O)C12CC3CC(CC(C3)C1)C2)c1ccccc1,102,108,.,-4
O=c1[nH]c(CSc2ccccc2)nc2ccccc12,103,105,-13,9
CCC(=O)Nc1ccc(Cl)c(C(F)(F)F)c1,99,104,3,-8
Cc1cc(C)n2c(SCC(=O)Nc3ccccc3)nnc2n1,99,102,-9,-9
CCNc1nc(NCC)nc(NNC(=S)Nc2ccc(C)cc2)n1,104,92,-55,11
CC(C)(C)c1ccc(C(=O)NC(=S)NCc2ccco2)cc1,100,98,-33,-1
O=C(COc1ccc(-c2nnco2)cc1)N(c1ccccc1)C1CCCCC1,99,99,-6,-6
O=C(N/N=C/c1ccco1)C1CC1(c1ccccc1)c1ccccc1 (stereo not drawn),98,100,-13,0
CC1=C(C(=O)OC(C)(C)C)C2(C(=O)Nc3ccccc32)C(C#N)=C(N)O1 (stereo not drawn),105,110,-10,-4
CCOC(=O)n1c(=O)oc2cc(Cl)ccc21,100,96,-10,1
CN(C)/C=C/c1c(C#N)c(=O)ncn1Cc1ccccc1,101,104,-188,-9
CC(=O)NC(C)C(=O)OCc1ccc(Cl)cc1Cl (stereo not drawn),97,96,.,-6
CN1CCC(c2ccc(Cl)s2)=N1,103,105,-17,19
COC(=O)c1c(C)[nH]c(C(=O)C(C)N2CCN(c3ccc(O)cc3)CC2)c1C (stereo not drawn),109,105,-15,24
Cn1c(=O)[nH]c2nncnc2c1=O,43*,45*,-152,6
Brc1cc(/C=N/n2cnnc2)oc1Br,104,109,.,8
Cc1ccccc1Nc1nc(N)nc(CSc2nnc(-c3ccccc3F)o2)n1,107,105,-6,14
COc1ccc(-c2nnc(SCCOc3ccc(Cl)cc3)o2)cc1,108,112,2,-18
CSC1=NC(C)(C)Cc2c(C)cccc21,90*,92*,0,.
O=C(COC(=O)c1cccnc1Nc1cccc(C(F)(F)F)c1)NCc1ccco1,102,106,-43,7
Cn1ccc(NC(=O)C(c2ccccc2)c2ccccc2)n1,101,103,-8,5

# At a glance, part of the list above.
SMILES,Polio RdRp inh,Polio RdRp inh intensity,MenB inh,Mtb MbtI inh
Cc1cc(C)n2c(SCC(=O)Nc3ccccc3)nnc2n1,99,102,-9,-9
CCNc1nc(NCC)nc(NNC(=S)Nc2ccc(C)cc2)n1,104,92,-55,11
CC(C)(C)c1ccc(C(=O)NC(=S)NCc2ccco2)cc1,100,98,-33,-1
O=C(COc1ccc(-c2nnco2)cc1)N(c1ccccc1)C1CCCCC1,99,99,-6,-6
O=C(N/N=C/c1ccco1)C1CC1(c1ccccc1)c1ccccc1 (stereo not drawn),98,100,-13,0
CC1=C(C(=O)OC(C)(C)C)C2(C(=O)Nc3ccccc32)C(C#N)=C(N)O1 (stereo not drawn),105,110,-10,-4

# Following part
SMILES,Polio RdRp inh,Polio RdRp inh intensity,MenB inh,Mtb MbtI inh
COc1cc(S(=O)(=O)NC(C)(C)CC(C)(C)C)ccc1NC(C)=O,101,99,15,3
Cc1cccc(NC(=O)C2(c3ccccc3)CCOCC2)c1,107,111,-24,.
CCOC(=O)Cc1cc(=O)n2[nH]cc(C#N)c2n1,98,105,0,89
CC(C)(C)NCC(=O)Nc1ccc(F)cc1Cl,101,107,-5,0
CCNC(=O)NCCC12CC3CC(CC(C3)C1)C2,101,108,-26,-4
O=C(c1ccc(CS(=O)(=O)c2ccc(C(F)(F)F)cn2)o1)N1CCOCC1,101,100,-8,-2
O=C(O)CNC(=O)C(CS)Cc1ccccc1 (stereo not drawn),105&102&101,101&100&100,-8&-4,5&-16
O=C(/C=C/c1ccco1)NCC1(c2ccccc2)CCOCC1,103,103,-8,17
N#Cc1ccc(CSc2ccc(Cl)cc2)cc1,105,114,-10,-4
CCn1c(O)c(C=Nc2cccc(Cl)c2)c(=O)[nH]c1=S,98,106,-4,-18
CCOC(=O)c1ccc(-n2c(C)cc(C=C3C(=O)NC(=S)NC3=O)c2C)cc1,103,109,-10,0
Cc1cc(=O)[nH]c(SCC(=O)N2c3ccccc3CCc3ccccc32)n1,.,.,-2,16
N#CCCn1cc(Cl)c(=O)c(Cl)c1,105,102,1,-8
COc1ccc(CN2C(=O)CC(C(=O)O)SC2=Nc2ccccc2)cc1 (stereo not drawn),99,102,-5,29
O=c1c2ccccc2sn1-c1nc2ccccc2s1,99,101,-26,37
CCCC1(CCC)NC(=O)N(Cc2ccc(-c3ccc(Br)cc3)o2)C1=O,107,110,-15,16
C/C(=C(/C#N)P(=O)(c1ccccc1)c1ccccc1)N1CCOCC1,102,105,-17,10
O=C(NCc1cccs1)C1c2ccccc2C(=O)N(C2CCCC2)C1c1cccs1 (stereo not drawn),103,105,-24,-19
Cc1ccc(NC(=O)Cc2coc3ccc4ccccc4c23)nc1,103,104,-27,27
COc1ccc(C(=O)CSc2nnc(CN3CCCC3)o2)cc1F,104,109,8,-8
COc1ccc(CNC(=O)CCn2c(=O)c3sccc3n(CC(=O)N3CCCCC3C)c2=O)cc1 (stereo not drawn),102,97,-28,-7
Cn1c(=O)oc2cc(S(=O)(=O)N3CCC(C(=O)NCCc4ccc(Cl)cc4)CC3)ccc21,99,102,-13,0
CN1CCN(C(=S)SCC(=O)N2CCCc3ccccc32)CC1,101,104,.,-8
N#Cc1cccc(C#N)c1Oc1ccc(S(=O)(=O)NCc2ccco2)cc1,107,99,11,0
O=C(COC(=O)/C=C/c1ccc2c(c1)OCO2)Nc1ccccc1,102,104,-15,2
O=C(O)/C=C/C(=O)Nc1ccccc1C(=O)O,101,101,-31,-51
COc1ccc(Cl)cc1NN,101,107,-9,.
CCOc1cc(C(=O)OCCN2C(=O)c3ccccc3C2=O)ccc1OCC(=O)N1CCCCC1,100,91,-41,-7
CC1(C)CC(=O)c2cc(C(=O)NCCC3=CCCCC3)c(=O)n(-c3ccccc3)c2C1,96,92,-11,9

# One compound at a time, from the list above. Screens in order: Polio RdRp inh | Polio RdRp inh intensity | MenB inh | Mtb MbtI inh
# O=C(COC(=O)/C=C/c1ccc2c(c1)OCO2)Nc1ccccc1 is entered as 102 | 104 | -15 | 2
# O=C(O)/C=C/C(=O)Nc1ccccc1C(=O)O is entered as 101 | 101 | -31 | -51
# CC1(C)CC(=O)c2cc(C(=O)NCCC3=CCCCC3)c(=O)n(-c3ccccc3)c2C1 is entered as 96 | 92 | -11 | 9
# N#Cc1cccc(C#N)c1Oc1ccc(S(=O)(=O)NCc2ccco2)cc1 is entered as 107 | 99 | 11 | 0
# Cn1c(=O)oc2cc(S(=O)(=O)N3CCC(C(=O)NCCc4ccc(Cl)cc4)CC3)ccc21 is entered as 99 | 102 | -13 | 0
